Source: PubChem BioAssay (several laboratories)
MLL AF4-AF9 inh: inhibitors of human MLL-AF4/AF9 interaction; 0.47% of 350,000 active; AID 651704; inhibition, % at 10 µM; AlphaScreen, biotin-AF4 peptide binding to FLAG-AF9; P42568;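 active = every replicate reaching a set inhibition limit, whatever the replicate mean, cut at about 25% in these data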;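 also: 0% = plate neutral control median and 100% = total signal loss; the record names both 10 and 1 µM as test concentration; the first replicate is given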
Target sequence (P42568 whole entry, looked up): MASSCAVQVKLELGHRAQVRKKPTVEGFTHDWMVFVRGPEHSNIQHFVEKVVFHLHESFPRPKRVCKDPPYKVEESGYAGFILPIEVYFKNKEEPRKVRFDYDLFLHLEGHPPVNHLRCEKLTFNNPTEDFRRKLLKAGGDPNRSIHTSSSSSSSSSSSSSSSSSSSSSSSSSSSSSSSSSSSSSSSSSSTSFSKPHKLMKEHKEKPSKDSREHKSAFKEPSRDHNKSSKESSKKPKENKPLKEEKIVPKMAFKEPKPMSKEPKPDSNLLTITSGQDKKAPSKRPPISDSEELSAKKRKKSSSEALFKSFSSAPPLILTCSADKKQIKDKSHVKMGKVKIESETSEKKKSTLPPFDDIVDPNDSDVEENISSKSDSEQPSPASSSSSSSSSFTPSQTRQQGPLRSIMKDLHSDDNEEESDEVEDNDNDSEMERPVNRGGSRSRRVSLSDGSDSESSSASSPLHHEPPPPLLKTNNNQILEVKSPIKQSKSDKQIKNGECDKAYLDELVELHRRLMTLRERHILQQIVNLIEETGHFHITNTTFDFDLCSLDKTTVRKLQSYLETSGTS
Vif A3G: inhibitors of Vif binding to APOBEC3G peptide, primary screen, biochemical, TR-FRET, GST-Vif 1-94, biotin-A3G peptide, dose response retest (AID 1117319); TR-FRET GST-Vif / biotin-A3G peptide binding; higher % means a stronger effect; test concentration not given here; strong numbers were not always called active; inhibition, %; hits with a dose series show IC50 in µM; 0.57% of 260,000 active;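 active = above the screen mean plus three standard deviations and confirmed in dose response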;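 also: Vif residues 1-94 fused to GST binding biotinylated APOBEC3G peptide 110-148; 0% = full assay without inhibitor and 100% = GST in place of GST-Vif; retest series ran down from 100 µM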
* hit, by the source's call; & = joins results of further samples. This is a subset; the hit share may differ from the screen's.

No.	smiles	MLL AF4-AF9 inh	Vif A3G
1	C[C@@H]1CN([C@@H](C)CO)S(=O)(=O)c2ccc(Br)cc2O[C@H]1CN(C)Cc1ccccc1F	2.7&1.6	-5%
2	COc1ccc(C(=O)COC(=O)CCn2c(C)csc2=O)c(OC)c1	7.5	3%
3	C[C@@H](O)C#Cc1ccc2c(c1)O[C@H](CN(C)C(=O)Nc1ccccc1)[C@@H](C)CN([C@@H](C)CO)S2(=O)=O	-1.2&-0.7&1.0	-2%
4	O=[N+]([O-])c1ccc2cccnc2c1	-2.5	-5%
5	CCN(CC)C(=O)[C@H]1C[C@H](CC(=O)NCC23CC4CC(CC(C4)C2)C3)C(=O)N2CCc3c([nH]c4cc(-c5ccco5)ccc34)[C@]12C	-3.9	0%
6	COC(=O)c1cn(C)c2ccc(S(=O)(=O)N(C)C3CCCCC3)cc2c1=O	-4.5	4%
7	CCOC(=O)CCCCC1C(CCCC(=O)OCC)C=NN1C (centres undefined)	-2.7	2%
8	CC(=O)NC(CC(C)C)C(=O)NC(Cc1ccccc1)C(=O)CCl (centres undefined)	0.0	-2%
9	Cn1nc(C(=O)NNC(=O)c2ccccc2Br)c2ccccc2c1=O	-21	0%
10	O=C(c1ccccc1)C(CCc1ccccn1)CCc1ccccn1	-0.4	-8%
11	Cc1ccc(Cc2c(-c3ccc(Cl)cc3)nc3ccc(Br)cn23)cc1	1.2	-22%
12	Cn1nc(C(=O)NC2CCCC2)c2ccccc2c1=O	0.9	6%
13	COc1cc(N)c2ncccc2c1Br	-1.6	6%
14	O=C(N/N=C/c1cccc(O)c1)c1ccc(-n2cnnn2)cc1	-20	0%
15	Cc1ccc(S(=O)(=O)N2CCN(CCOc3ccccc3)CC2)cc1	-22	-7%
16	Cc1cccc(NC(=O)c2ncn3c2C(=O)NC[C@H]3C)c1	-1.5	-2%
17	CCN(C[C@H]1N[C@@](CC)(C(=O)OC)[C@H]2C(=O)N(C)C(=O)[C@@H]12)C(=O)c1ccc(F)cc1	0.2	1%
18	C[C@H](CO)N1C[C@H](C)[C@@H](CN(C)C(=O)Nc2ccc(C(F)(F)F)cc2)Oc2c(NS(=O)(=O)c3ccc(F)cc3)cccc2C1=O	-2.2&-0.1	5%
19	O=C(O)c1cc(-c2ccc(/C=C3/SC(=S)N(Cc4ccccc4)C3=O)o2)ccc1Cl	8.4	30%
20	O=c1[nH]c(C(F)(F)C(F)(F)C(F)(F)F)no1	3.3	-6%
21	CCn1cc(/C=C(\NC(=O)c2ccccc2)C(=O)NCCCn2ccnc2)c2ccccc21	5.0	4%
22	CN1C(=O)N(CC(=O)N2CCN(c3ncccn3)CC2)C(=O)C12CCCCC2	-5.7	2%
23	CN(C)CCC(C(=O)c1ccccc1)c1ccncc1 (centres undefined)	-1.9	-1%
24	O=S(c1ccccc1)c1ccccc1	-1.8	4%
25	CS(=O)(=O)c1ccc2nc(NC(=O)CCNC(=O)c3ccc([N+](=O)[O-])cc3)sc2c1	0.2	0%
26	CCc1ccc(C(=O)CN2C(=O)NC3(CCCCCC3)C2=O)cc1	-3.1	-11%
27	CN(Cc1ccccc1F)C(=O)C1CCCN(C(=O)c2ccc(Cl)cc2)C1 (centres undefined)	6.5	0%
28	O=C(Nc1cccc(C(=O)O)c1)/C(=C\c1ccc2c(c1)OCO2)NC(=O)c1ccccc1Br	-5.8	8%
29	CC(=Cc1cccs1)C(=O)c1ccccc1	8.2	-4%
30	CCOC(=O)c1c(C)n(-c2ccc(C)cc2)c2ccc(OCC(O)CN3CCN(C)CC3)cc12 (centres undefined)	41*	2%

Following part
No.	smiles	MLL AF4-AF9 inh	Vif A3G
31	CC(C)N1CCC(=O)NC1=O	1.4	4%
32	O=C(NC1CC1)c1ccc(CSCc2ccc(Cl)cc2)o1	2.1	-4%
33	COCC1CCN(C(=O)c2ccc3nc(Cc4cccc(Cl)c4)oc3c2)CC1	6.6	1%
34	CCCn1c(N)c(N(CCOC)C(=O)COC(=O)COc2c(C)cc(C)cc2C)c(=O)[nH]c1=O	-8.2	-4%
35	O=P(Cc1ccccc1)(Cc1ccccc1)c1ccccc1	-0.8	-3%
36	COc1cccc(NC(=O)C2CCN(S(=O)(=O)c3ccc(N4CCCC4=O)cc3)CC2)c1	0.6	0%
37	Nc1cc2[nH]c(=O)c3ccccc3c2cc1[N+](=O)[O-]	3.3	-10%
38	CCOC(=O)CCCCCCCCC(=O)Nc1ccc(-n2[nH]c(=O)cc2C)cc1	8.0	-1%
39	Cc1ccc(S(=O)(=O)N(C)C[C@@H]2OCc3cnnn3CCCC(=O)N([C@@H](C)CO)C[C@@H]2C)cc1	-3.4&1.1	3%
40	Cc1nn(-c2ccccc2)c(C)c1C(=O)OCC(O)=C(C#N)c1nc2ccccc2[nH]1	-1.3	9%
41	CC1CCCC=CC2CC(OC(=O)CN(C)C)CC2C(O)C=CC(=O)O1 (centres undefined)	-2.3	-5%
42	Cc1nc(SCC(=O)N2c3ccccc3NC(=O)CC2C)c2c(C)c(C)sc2n1 (centres undefined)	0.6	-64%
43	O=C(O)c1ccccc1C=NN=C1c2ccccc2-c2ccccc21	-0.1	0%
44	COc1ccc(S(=O)(=O)N(C)C[C@H]2OCCCC[C@H](C)Oc3ccc(NC(=O)Nc4ccc(F)cc4)cc3C(=O)N([C@H](C)CO)C[C@H]2C)cc1	3.2&0.8	-9%
45	CCOC(=O)C1=CN(Cc2cccc(F)c2)S(=O)(=O)N(CC)C1c1ccc2ccccc2c1 (centres undefined)	-0.7	0%
46	CSC[C@H]1CN(Cc2cccnc2)C(=O)[C@@H]1CC(=O)Nc1ccc(Br)cc1	-2.5	11%
47	C[C@]12c3[nH]c4ccc(Cl)cc4c3CCN1C(=O)[C@@H](CC(=O)NCCCn1ccnc1)C[C@@H]2C(=O)N1CCOCC1	-1.8	-12%
48	Nc1ccc2nc(N)sc2c1	1.9	1%
49	O=[N+]([O-])c1cccc(C([O-])=C(C(=S)Nc2cccc3ccccc23)[n+]2ccccc2)c1	0.6	2%
50	CC1(C)CC(=O)C=C(c2ccc(-c3ccc(S(C)(=O)=O)cc3)cc2)C1=O	2.8	4%
51	C[C@@H]1CN([C@@H](C)CO)C(=O)c2ccccc2-c2ccccc2CO[C@@H]1CN(C)S(=O)(=O)c1ccc(C(F)(F)F)cc1	-0.2	0%
52	COC1=CC(=O)OC(c2ccco2)C1 (centres undefined)	-0.4	-9%
53	COc1ccc2[nH]c3c(c2c1)CCN1C(=O)C(CC(=O)NC(C)(C)C)C[C@H](C(=O)N2CCCCC2)[C@@]31C (some centres undefined)	-2.9	4%
54	CCOC(=O)c1sc(N)nc1C(F)(F)F	-8.0	-10%
55	OCC1OC(c2ccccc2)OC2COC(c3ccccc3)OC12 (centres undefined)	-1.1	1%
56	C[C@@H]1CN([C@H](C)CO)C(=O)c2cc(-c3ccc(F)cc3)cnc2O[C@H]1CN(C)C(=O)c1ccc(F)cc1	-4.4&-3.2&-1.5	4%
57	Cc1ccc2cccc(CC(=O)NN)c2c1	-0.5	-3%
58	CC(C)(C)Cc1c(-c2ccc(Br)cc2)nc2ccc(Cl)cn12	-1.6	0%
59	COc1ccc(C2/C=C\CN(S(=O)(=O)c3ccc(C)cc3)CC(=O)N2Cc2cccc(F)c2)cc1 (centres undefined)	-3.0	11%
60	CCC/C=C/c1ccc(CN2C(C)C(=O)N(Cc3cn(CC4CCCCC4)nn3)CCS2(=O)=O)cc1 (centres undefined)	-0.3	-5%

Entries of single compounds, quoted from the list.
O=C(N/N=C/c1cccc(O)c1)c1ccc(-n2cnnn2)cc1 reads MLL AF4-AF9 inh = -20; Vif A3G = 0%
O=C(O)c1cc(-c2ccc(/C=C3/SC(=S)N(Cc4ccccc4)C3=O)o2)ccc1Cl reads MLL AF4-AF9 inh = 8.4; Vif A3G = 30%
Cn1nc(C(=O)NNC(=O)c2ccccc2Br)c2ccccc2c1=O reads MLL AF4-AF9 inh = -21; Vif A3G = 0%

Later entries.
No.	smiles	MLL AF4-AF9 inh	Vif A3G
61	O=C(CCNC(=O)c1ccc([N+](=O)[O-])cc1)NC1CCCc2ccccc21 (centres undefined)	-18	-4%
62	O=C(C1CCCCC1)N1C[C@H](n2cc(-c3ccc(F)cc3)nn2)[C@@H](O)C[C@@H]1c1ccc(Cl)cc1	-1.8	-9%
63	COCCNc1oc(/C=C/c2cccs2)nc1S(=O)(=O)c1ccccc1	-7.0	0%
64	COc1cc(C(=O)NCC(c2cccs2)N2CCOCC2)ccc1OCc1ccccc1 (centres undefined)	0.7	4%
65	Cc1ccc(S(=O)(=O)NCN2C(=O)c3ccccc3C2=O)cc1	2.7	6%
66	CCN(CC)C(=O)C1CCCN(C(=O)c2ccc3nc(-c4cccc(OC)c4)oc3c2)C1 (centres undefined)	0.6	0%
67	C[C@@H]1CN([C@H](C)CO)C(=O)CCCn2cc(nn2)CO[C@H]1CN(C)C(=O)Nc1cccc(F)c1	-4.2&-1.2	6%
68	COc1ccc(NC(=O)CN(C)CC(=O)N2CCCCCC2)cc1	0.6	0%
69	CCOc1ccc(NC(=O)c2ccc(NC(=O)c3ccccc3Br)cc2)cc1	2.4	1%
70	O=c1c(OCc2ccccc2)cccn1Cc1ccccc1	2.2	-2%
71	O=C(CCN1C(=O)NC2(CCCC2)C1=O)Nc1ccc(Sc2ccc(Br)cc2)cc1	2.4	-7%
72	O=C(CSc1n[nH]c(=O)n1C1CC1)Nc1ccc(F)c([N+](=O)[O-])c1	-3.4	-1%
73	COC(=O)C1CCN(CC(=O)Nc2ccc(C(=O)Nc3ccccc3OC)cc2)CC1	0.9	-5%
74	C(=NN=Cc1c[nH]c2ccccc12)c1c[nH]c2ccccc12	-2.4	-1%
75	COc1ccc(OC)c(/C=C/c2ccnc3ccccc23)c1	2.3	-1%
76	O=C(NCC1CCCO1)c1cn(Cc2ccccc2Cl)nc1-c1ccccc1 (centres undefined)	-1.1	-2%
77	COc1cc(NC(=O)COC(=O)c2ccc3ccccc3n2)cc(OC)c1	0.7	-2%
78	CCOC(=O)C1=CN(Cc2ccco2)S(=O)(=O)N(CC)C1c1ccc(F)c(Cl)c1 (centres undefined)	1.1	10%
79	O=C(/C=C/c1ccccc1)CC(=O)c1ccccc1	-63	-3%
80	CN1CCn2cnc(C(=O)N3CCN(c4ccccc4)CC3)c2C1=O	-0.6	0%
81	CCC1(c2ccccc2)NC(=O)N(CC(=O)NNC(=O)c2ccc(F)cc2)C1=O (centres undefined)	6.1	0%
82	O=C(Cc1ccc(NC(=O)C2CCN(C(=O)C3CCCC3)CC2)cc1)Nc1cccc(C(=O)N2CCCCC2)c1	6.8	1%
83	Nc1nc(SCc2ccccc2)c2ncn(C3CCCCC3)c2n1	-3.3	-7%
84	COc1ccc(NS(=O)(=O)N2CCCCC2)cc1	-0.6	-3%
85	C[C@@H]1CN([C@@H](C)CO)C(=O)c2cc(C#CC3CCCCC3)cnc2O[C@@H]1CN(C)S(=O)(=O)c1ccc(F)cc1	-2.0&-7.6&-6.6	5%
86	CC(C)C[C@@H](CN)NC(=O)c1nc[nH]c1C(=O)N[C@@H](CC(C)C)C(=O)CNC[C@H](C)NC(=O)c1nc[nH]c1C(=O)N[C@@H](C)C(=O)O	2.1	-1%
87	CCc1ccc(N2CC(C(=O)N3CCN(S(=O)(=O)c4cccc(F)c4)CC3)CC2=O)cc1 (centres undefined)	0.1	-3%
88	CO[C@@]12[C@@H]3N[C@@H]3CN1C1=C(C(=O)C(N)=C(C)C1=O)[C@@H]2COC(N)=O	-0.7	6%
89	CC(C)Cc1nnc(NC(=O)C2CCCN(C(=O)c3ccc(Cl)cc3)C2)s1 (centres undefined)	-8.5	17%
90	CCOC(=O)N1CCN(S(=O)(=O)N2CCCC(C(=O)NCc3ccccc3OCC)C2)CC1 (centres undefined)	-0.2	-2%

Remaining list, next part:
No.	smiles	MLL AF4-AF9 inh	Vif A3G
91	CSc1ncnc2c1ncn2CCCNCC1CCCCC1	0.7	-5%
92	O=C(c1ccc(S(=O)(=O)NCc2ccco2)cc1)N1CCN(Cc2ccccc2F)CC1	-1.7	-2%
93	Nc1ccc2c(c1)Cc1cc(N)c(Cl)cc1-2	19	9%
94	CCCCNC(=O)C(=O)Nc1ccc2c(c1)N(S(=O)(=O)c1cccs1)CCC2	-2.3	-2%
95	Cc1ccc([C@H]2C[C@H](O)[C@@H](n3cc(C4CC4)nn3)CN2Cc2cccs2)cc1	4.6	0%
96	O=C(CNC(=O)c1cccc(S(=O)(=O)N2CCc3ccccc32)c1)Nc1ccc(F)c(F)c1F	0.6	-1%
97	Cc1ccc(NC(=O)COC(=O)CN2CCSC2=O)cc1Cl	2.2	8%
98	CN(c1ccccc1)S(=O)(=O)c1cccc(NC(=O)COc2ccccc2)c1	-3.0	-7%
99	CC1CCCC(NC(=O)CN2C(=O)NC(C)(c3ccccc3)C2=O)C1C (centres undefined)	2.2	-3%
100	Cc1ccn2c(Cc3ccccc3)c(-c3ccc(Br)cc3)nc2c1	2.1	-4%
101	Cc1cc(C)c(S(=O)(=O)c2ccc(F)cc2)c(C)c1	-0.1	-7%
102	O=C1NN(c2ccc(Cl)cc2)C(=O)/C1=C\c1ccc(-c2cccc(C(=O)O)c2)o1	-2.2	5.8µM*
103	Cn1sc2ccccc2c1=O	-0.5	-4%
104	NC(=O)C(CCCCN1CCCCC1)(c1ccccc1)c1ccccc1	-3.4	-5%
105	Cc1cc2ccccc2nc1-c1ccccc1F	-0.8	-6%
106	Cc1cc(=O)n(Nc2ccccc2)c(O)c1C#N	0.8	7%
